# Screening data as filed in PubChem BioAssay.
# TRPV1 potentiator – HTS Assay for Compounds that Act as Potentiators of the Vanilloid Receptor 1 | potentiation, % at 8.33 µM | hit rate 0.02% among 320,000 | Transient receptor potential cation channel subfamily V member 1 (Homo sapiens), Q8NER1 | TRPV1-expressing cells, Fluo-8 calcium influx, capsaicin EC20 potentiation; host cell line not named in the record; control for the full effect not named in the record; active means potentiation above 80%; inconclusive means 30% to 80%; inactive means below 30%; also: 0% is about no effect
# Target sequence (Q8NER1 whole entry, looked up): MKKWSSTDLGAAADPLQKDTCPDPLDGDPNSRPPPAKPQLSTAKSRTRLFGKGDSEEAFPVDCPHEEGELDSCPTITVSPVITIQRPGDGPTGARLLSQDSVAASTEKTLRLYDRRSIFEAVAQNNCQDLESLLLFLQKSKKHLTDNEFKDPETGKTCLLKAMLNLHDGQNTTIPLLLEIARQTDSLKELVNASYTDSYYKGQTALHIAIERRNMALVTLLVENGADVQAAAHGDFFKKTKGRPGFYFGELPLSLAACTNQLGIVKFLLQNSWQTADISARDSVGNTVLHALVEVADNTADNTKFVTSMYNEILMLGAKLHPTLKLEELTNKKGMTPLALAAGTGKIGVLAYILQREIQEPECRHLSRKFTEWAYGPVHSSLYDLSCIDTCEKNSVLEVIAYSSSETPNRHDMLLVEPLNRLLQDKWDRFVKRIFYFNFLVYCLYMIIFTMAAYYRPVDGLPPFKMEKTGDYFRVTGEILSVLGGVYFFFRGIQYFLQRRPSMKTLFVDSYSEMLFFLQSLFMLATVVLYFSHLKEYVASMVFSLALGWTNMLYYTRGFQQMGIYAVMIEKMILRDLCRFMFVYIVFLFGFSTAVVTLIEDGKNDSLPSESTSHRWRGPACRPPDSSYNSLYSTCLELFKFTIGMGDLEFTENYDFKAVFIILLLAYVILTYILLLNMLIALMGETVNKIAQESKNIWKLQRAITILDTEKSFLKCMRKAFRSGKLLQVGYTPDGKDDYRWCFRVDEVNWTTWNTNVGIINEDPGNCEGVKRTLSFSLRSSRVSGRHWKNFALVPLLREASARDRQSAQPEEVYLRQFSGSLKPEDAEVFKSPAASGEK
#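 Cells expressing TRPV1 were dye-loaded with Fluo-8 and read kinetically: 10 s baseline, 3 min after compound (agonist portion), then 2 min after EC20 capsaicin (allosteric enhancer portion). Calcium-bound dye fluorescence at 480/520 nm.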
# TRPML1 inh – qHTS for Inhibitors of the Human Mucolipin Transient Receptor Potential 1 (TRPML1); hit rate 0.02% among 390,000; TRPML1-inducible cells, Ca2+ dye fluorescence, FDSS; stronger effect = lower value; inhibition of EC80 agonist-evoked calcium signal; activity change, negative = inhibition, % (test concentration not listed); in the data active means activity change below about -50%; inconclusive means about -30% to -50%; inactive means above about -30%;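 also: stimulus is agonist 54-4 at its EC80 concentration; % is scaled to controls: 0 for no effect and ±100 for the full control effect; compound concentration not given in the record; the text of the record puts the active cut at -80%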
#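 Calcium fluorescence in TRPML1-DL cells induced overnight with Tet: a 110 s read after compound pin addition, then a 110 s antagonist read after challenge with 54-4 at 4 uM final (EC80).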
# ClpP mod – qHTS Assay for Activators of ClpP; ATP-dependent Clp protease proteolytic subunit (Bacillus subtilis (strain 168)), P80244; purified B. subtilis ClpP, FRET peptide cleavage, 20 min; Potency, µM (highest dose often 57.5 µM), for the others: at the highest dose activity change, negative = active; hit rate 1.9% among 340,000; active = well fitted falling curve with a large enough effect; inconclusive = small, poorly fitted or top-dose-only effect; inactive = no such curve, though single readings can be large or run the other way; also: potency is read from the fitted curve at half-maximal effect; the source files actives as falling curves though it sought activators and does not explain the sign; nearly all actives have a fitted effect of over 65% in size; many hits overshoot -100%
# Target sequence (P80244 whole entry, looked up): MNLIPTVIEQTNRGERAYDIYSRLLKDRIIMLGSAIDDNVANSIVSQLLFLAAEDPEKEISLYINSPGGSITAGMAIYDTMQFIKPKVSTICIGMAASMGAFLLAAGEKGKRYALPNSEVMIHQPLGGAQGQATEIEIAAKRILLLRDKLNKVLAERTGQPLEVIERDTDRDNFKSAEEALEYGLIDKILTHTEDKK
#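 FRET quenching reversal measured ClpP activation: 10 microg/mL B. subtilis ClpP at pH 8 with the FRET-FV decapeptide, read at 430 nm after 320 nm excitation. The 20-min minus 0-min signal was scaled between DMSO/no-enzyme wells and ADEP (5.8 microM final).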
# gsp antagonist – qHTS for Antagonists of gsp, the Etiologic Mutation Responsible for Fibrous Dysplasia/McCune-Albright Syndrome: qHTS; Potency, µM (doses to about 76.9 µM), for the others: top-dose activity change, negative = inhibition, actives largely listed as inhibitors; hit rate 0.4% among 340,000; gsp-mutant cells, cAMP HTRF, 30 min; control for the full effect not named in the record; active = falling curve of any shape with a large fitted effect; inconclusive = falling curve, mostly with a smaller effect; inactive = flat or rising curve; cell line not stated here;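 also: intracellular cAMP measured with PDE inhibitor Ro 20-1724 present during compound exposure; potency is read from the fitted curve at half-maximal effect; % is scaled to controls: 0 for no effect and ±100 for the full control effect; nearly all actives have a fitted effect of over 65% in size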
#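 Measurement of cellular cAMP by homogeneous time-resolved fluorescence following a 30 min compound exposure at 37C. The PDE inhibitor […] was present throughout; the assay buffer was DPBS with 0.05% BSA and 0.005% Tween 20.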
# Menin MLL FP FL – qHTS Assay for Inhibitors Targeting the Menin-MLL Interaction in MLL Related Leukemias: Competition With Fluorescein Labeled MLL-derived Peptide; 290,000 tested, under 10 active; FP activity change, % at 61.4 µM; Fluorescence polarization, fluorescein-MLL peptide displacement from menin; inconclusive = falling polarisation curve, or a change in total fluorescence; inactive = total fluorescence flat and polarisation flat or rising; no compound was filed as active; the % refers to the polarisation; negative = inhibition;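 also: % of control where 0% means no effect; inhibitors lower the polarisation; unlabelled MLL peptide was the positive control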
# Sfp PPTase inh – qHTS Assay for Inhibitors of Bacillus subtilis Sfp phosphopantetheinyl transferase (PPTase); 4'-phosphopantetheinyl transferase ffp (Bacillus subtilis), Q9F4F7; Biochemical Sfp PPTase activity, qHTS; Potency, µM, for inactives: max response, negative = inhibition, hits mostly inhibitors; hit rate 3.5% among 310,000; AID 1490, 2009; active = well fitted inhibition curve with a large enough effect; inconclusive = small, poorly fitted or top-dose-only effect, or another doubt; inactive = no such curve, though single readings can be large or run the other way;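 also: the enzyme is Sfp with the accession as filed and its product quenches rhodamine fluorescence; potency is read from the fitted curve at half-maximal effect; 0% = enzyme reaction without inhibitor and -100% = no enzyme wells; top concentration of the series not given in the record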
#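 Compounds were incubated with enzyme (final 15 nM) for 15 min at room temperature before substrate addition started the reaction. Fluorescence at 525 nm excitation, 598 nm emission was recorded immediately and after 30 minutes.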
# gsp ag – qHTS for Agonist of gsp, the Etiologic Mutation Responsible for Fibrous Dysplasia/McCune-Albright Syndrome: qHTS. gsp mutant cells, cAMP HTRF, 30 min; control for the full effect not named in the record. Potency, µM (titrated, usually from 76.9 µM), without a hit: at the highest dose activation (cAMP increase), most hits filed as activators. AID 624287, 2012. hit rate 0.13% among 340,000; active = well fitted activation curve with a large enough effect; inconclusive = small, poorly fitted or top-dose-only effect, or another doubt; inactive = no such curve, though single readings can be large or run the other way; cell line not stated here;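 also: phosphodiesterase inhibitor Ro 20-1724 added with compounds to block cAMP breakdown; potency is read from the fitted curve at half-maximal effect; nearly all actives have a fitted effect of over 60% in size; about a fifth of the inactives were tested at one dose only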
#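 Cells stably selected in G418 were plated at 2000/well, grown 16-24 hr, then given compounds in DMSO with the PDE inhibitor […] (300 uM solution added) for 30 min at 37C; cAMP was read by HTRF.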
# * = called active by the depositor; ? = inconclusive; · = no result given; & = joins results of further samples; [ ] = dose if it differs, or a comment.
compound	TRPML1 inh	gsp antagonist	Menin MLL FP FL	ClpP mod	TRPV1 potentiator	Sfp PPTase inh	gsp ag
COCCN(CCOC)S(=O)(=O)c1ccc(C(=O)Nc2nnc(CSC)o2)cc1	39	13%	4.8	-1.3%	7	?	1%
CCc1ccc2[nH]c(=O)c(CN(CCN(CC)CC)C(=S)NCc3ccco3)cc2c1	-21	9%	8.0	-19%	-21	79µM*	28%
Oc1oc(-c2ccco2)nc1C=Nc1ccccc1	-10	-5%	0.8	-5.2%	-14	17%	27%
C/C(=N/NC(=O)NC12CC3CC(CC(C3)C1)C2)c1ccccc1	-9	-8%	1.5	2.0%	-7	6%	-3%
Cc1ccc(NCCC(=O)c2cccs2)cc1	-4	-1%	-2.6	0.1%	-4	4%	-1%
O=C(CN1C(=O)CCSc2ccc(S(=O)(=O)N3CCCC3)cc21)Nc1ccccc1Cl	-1&-4	5%	4.2	-0.5%&-1.3%	-1	5%	22%
CCCCN(CC)Cc1ccc(CNC(=S)Nc2ccc(C)cc2Cl)o1	-8	4%	4.3	·	4	-13%	-5%[15.4 µM]
Cc1oc(C(=O)O)cc1COc1ccc2c3c(c(=O)oc2c1C)CCC3	-5	11%	-0.1	-4.2%	2	3%	10%
CC(C)(C)C(=O)Cn1ncc(N2CCOCC2)c(Br)c1=O	3	8%	-2.2	·	-8	14%	-9%
CCN1C(=O)[C@H]2[C@@H](c3ccc(OC)cc3)N[C@]3(CCCN(Cc4ccc(C(F)(F)F)cc4)C3=O)[C@H]2C1=O	-11	·	·	1.7%	·	·	-32%[inhibitor]
Cc1nc(NCC(c2ccccc2)N(C)C)c2c(C)c(C)sc2n1 (stereo not drawn)	14	-9%	0.5	·	-15	9%	13%[15.4 µM]
CCCC(C)C(=O)NCc1ccncc1 (stereo not drawn)	9	11%	1.2	·	-11	12%	-33%
CCOc1ccc(C(=O)NC(C(=O)NCc2cccnc2)C(C)C)cc1 (stereo not drawn)	-11	11%	1.0	·	-22	-6%	-6%
Cc1ccc(CNCCCSc2ncccn2)cc1	14	16%	-5.5	·	4	-8%	8%
COc1ccc(S(=O)(=O)N2CCCC(C(=O)O)C2)cc1Cl (stereo not drawn)	21	5%	0.6	1.6%	9	14%	?
O=c1[nH]c(CN2CCN(S(=O)(=O)c3cccs3)CC2)nc2c(Br)cc(Br)cc12	26	-42%	5.9	-4.4%	1	-15%	29%[15.4 µM]
O=C(Nc1ccc(F)cc1)c1sccc1SCc1cccc(C(F)(F)F)c1	85	4%	-3.3	-16%	-14	0%	19%
CCN(CC)S(=O)(=O)c1cc(NC(=O)c2ccc3c(c2)NC(=O)C(C)S3)ccc1C (stereo not drawn)	-10	?	·	-3.3%	-4	·	-30%[inhibitor]
CCOc1ccc2cc(S(=O)(=O)n3ccnc3C)ccc2c1	-19	6%	4.4	-20%	0	40µM*	-50%[inhibitor]
Cc1cccc(COc2ccccc2C(=O)NC2CCC(O)CC2)c1 (stereo not drawn)	-6	4%	·	2.6%	13	·	15%[15.4 µM]
OC1c2cc(Cl)ccc2-c2c(Cl)cc(Cl)cc21 (stereo not drawn)	5	3%	·	·	·	·	0%
COC(=O)c1ccc(C(=O)OC)c(NC(=O)COC(=O)CC2CC3CCC2C3)c1 (stereo not drawn)	10	-33%	3.2	?	1	4%	-14%
CS(=O)(=O)Nc1ccccc1C(=O)NCc1ccco1	-1	-5%	5.2	28µM*	8	2%	-30%
CC1C(=O)N(Cc2cn(CCC3OCCCO3)nn2)CCS(=O)(=O)N1Cc1ccc(-c2cccc(N(C)C)c2)cc1 (stereo not drawn)	3	·	·	-22%	·	·	-131%[inhibitor]
COc1ccc(-n2cnc3cc(C(=O)NCCN4CCOCC4)ccc32)cc1	-12	12%	0.7	·	0	9%	-27%

# More records follow:
compound	TRPML1 inh	gsp antagonist	Menin MLL FP FL	ClpP mod	TRPV1 potentiator	Sfp PPTase inh	gsp ag
CC(=O)C1=C(O)C(=O)N(c2ccc(O)cc2)C1c1ccccc1F (stereo not drawn)	25	-1%	1.8	-2.1%	5	13%	28%
CCCOc1cccc(/C=N/NC(=O)c2csc(C)c2C)c1	6	-24%	2.8	-2.0%	4	1%	-1%
CCCCn1c(N)c(N(CC)C(=O)c2cccc(OCc3ccccc3)c2)c(=O)[nH]c1=O	11	-3%	·	-12%	-3	·	-3%
Cc1nn(-c2cc(N3CCCCC3)ccc2[N+](=O)[O-])c(=O)c2ccccc12	-7	-20%	-1.6	0.1%	25	4%	34%
COc1ccc(-n2c(-c3ccc(Br)cc3)n[nH]c2=S)cc1	-19	-30%	-3.8	-0.6%	-16	-10%	3%
Nc1ccn([C@@H]2O[C@H](CNCc3cnc(N4CCOCC4)s3)[C@@H](O)[C@H]2O)c(=O)n1	-7	·	·	1.9%	·	·	7%
O=C(COc1ccccc1Cl)Nc1ccc(NC(=O)c2ccco2)cc1	11	-29%	0.6	?	6	2%	28%[15.4 µM]
Cn1c(CN2CCOCC2)nnc1SCC(=O)NCCc1ccccc1	12	6%	0.3	?	0	10%	-17%
CC12CCC(C1)C(C)(C)C2NS(=O)(=O)c1ccc(F)cc1 (stereo not drawn)	7	20%	·	0.1%	-3	·	-2%
COc1ccc(OC)c(NC(=O)C2C3C=CC(C3)C2C(=O)NCc2ccccn2)c1 (stereo not drawn)	8	-1%	3.4	0.4%	-1	15%	9%
COc1cccc(CN2C(=O)C(C)Oc3ccccc32)c1 (stereo not drawn)	-3	4%	-3.0	·	14	3%	1%
O=C(Cn1c(=O)cnc2ccccc21)Nc1cccc(S(=O)(=O)N2CCCCC2)c1	19	-15%	·	-23%	0	·	-12%
COc1cc(CC(=O)OCC(=O)Nc2sccc2C(N)=O)cc(OC)c1OC	13	?	15	·	1	-20%	28%
CC(C)(C)NC(=O)NC(=O)COC(=O)COc1ccc2c(c1)CCC2	-11	8%	4.1	0.0%	-9	18%	3%
CCn1cc(C(=O)N[C@H](C(=O)NCCCn2ccnc2)C(C)C)c(=O)c2cc3c(cc21)OCO3	7	9%	-1.4	?	-5	-3%	?
Cc1cccc(/C=N/n2c(-c3ccncc3)n[nH]c2=S)c1	-21	-12%	7.7	-3.7%	?	?	-39%[inhibitor]
O=C(CCCSc1ccc(Cl)cc1)Nc1cc(S(=O)(=O)N2CCOCC2)ccc1O	27	32µM*	·	-0.7%	-10	·	-28%
Cc1nc(NC(=O)c2cccc(Cl)c2)sc1C(=O)N1CCCCC1	-14	-4%	-1.8	-0.2%	5	-10%	-187%[inhibitor]
CC(=O)Nc1cccc(NC(=O)C2CC(=O)N(c3ccc(C)cc3)C2)c1 (stereo not drawn)	0	-11%	0.0	-0.5%	-12	-19%	10%
Cc1nn(CCOc2cccc(Cl)c2)c(C)c1[N+](=O)[O-]	35	-10%	·	-0.4%	7	-3%	4%
O=C(NCc1ccco1)c1ccc(S(=O)(=O)N2CCOCC2)cc1	-4	-1%	4.6	-1.0%	0	20µM*	4%
CC(=O)/C(=N/Nc1cccc(C)c1)N1CCOCC1	1	-15%	2.9	-2.1%	-5	-5%	-30%[inhibitor]
Cc1c(C(=O)O)cccc1N1C(=O)Nc2ccccc2N1O	-7	13%	54[activator]	-0.2%	-7	6%	-53%[inhibitor]
COc1cc(OC)cc(C(=O)N2CCN(Cc3cccc(F)c3)CC2)c1	-13	3%	0.7	-2.2%	·	-20%	-54%[inhibitor]
CN(C)S(=O)(=O)c1ccc(/C(O)=C2/C(=O)C(=O)N(CCN3CCCCC3)C2c2cccnc2)cc1 (stereo not drawn)	·	3%	·	-0.3%	·	·	-7%

# 6 entries picked at random from those above, as already listed:
compound	TRPML1 inh	gsp antagonist	Menin MLL FP FL	ClpP mod	TRPV1 potentiator	Sfp PPTase inh	gsp ag
CC12CCC(C1)C(C)(C)C2NS(=O)(=O)c1ccc(F)cc1 (stereo not drawn)	7	20%	·	0.1%	-3	·	-2%
CN(C)S(=O)(=O)c1ccc(/C(O)=C2/C(=O)C(=O)N(CCN3CCCCC3)C2c2cccnc2)cc1 (stereo not drawn)	·	3%	·	-0.3%	·	·	-7%
CCN(CC)S(=O)(=O)c1cc(NC(=O)c2ccc3c(c2)NC(=O)C(C)S3)ccc1C (stereo not drawn)	-10	?	·	-3.3%	-4	·	-30%[inhibitor]
COc1ccc(OC)c(NC(=O)C2C3C=CC(C3)C2C(=O)NCc2ccccn2)c1 (stereo not drawn)	8	-1%	3.4	0.4%	-1	15%	9%
CC(=O)C1=C(O)C(=O)N(c2ccc(O)cc2)C1c1ccccc1F (stereo not drawn)	25	-1%	1.8	-2.1%	5	13%	28%
Cc1nc(NCC(c2ccccc2)N(C)C)c2c(C)c(C)sc2n1 (stereo not drawn)	14	-9%	0.5	·	-15	9%	13%[15.4 µM]

# (listing goes on)
compound	TRPML1 inh	gsp antagonist	Menin MLL FP FL	ClpP mod	TRPV1 potentiator	Sfp PPTase inh	gsp ag
CC(=O)Nc1ccc(Nc2nc3c(S(=O)(=O)c4ccc(C)c(C)c4)nnn3c3ccccc23)cc1	-1	26%	0.7	·	-3	10%	-2%[15.4 µM]
CC(CCc1ccccn1)(CCc1ccccn1)C(=O)c1ccccc1	-13	-9%	·	-0.5%	·	·	22%[15.4 µM]
COc1cccc(NC(=O)CN(C)C(=O)c2sc3cc(Cl)ccc3c2Cl)c1	28	-28%	·	-4.4%	15	·	0%
O=C(Nc1ccc2cn[nH]c2c1)c1c(Cl)cccc1Cl	1	9%	2.1	-13%	-6	40µM*	?
